Vaccinia stage – blocks a specific stage of Vaccinia orthopoxvirus infection; Vaccinia-infected cells, mCherry/Venus stage reporter fluorescence; hits give low values; some inactives read as strong as hits; activity change (mCherry), % (concentration not given with the values); 0.01% of 89,000 active;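 active = mCherry past -33% and 40 or more points under the early reporter, replicates agreeing; inconclusive = past -33% without that gap or agreement; tested in A549 cells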;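 also: scaled between vehicle wells and reference inhibitor wells; 23 nL library stock went into each well; one replicate is shown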
Vaccinia stage Venus – also measured in Vaccinia stage; calls as there; activity change (Venus), %; measured here: Venus reporter, other viral stage;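 negative = less Venus signal; first of two replicates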
Active calls of the source: *; ? = inconclusive; / = not tested or not shown; & = joins results of further samples.

SMILES | Vaccinia stage | Vaccinia stage Venus
C[C@H](CO)N1C[C@H](C)[C@H](CN(C)S(C)(=O)=O)Oc2ccc(NS(C)(=O)=O)cc2CC1=O | 1 | 11
O=C(c1ccccc1F)N1CC(=O)N2[C@H](CO)[C@@H](c3ccc(-c4ccc(F)cc4)cc3)[C@@H]2C1 | ? | /
C[C@@H]1CN([C@@H](C)CO)C(=O)c2cc(-c3ccc(F)cc3)cnc2O[C@H]1CN(C)C(=O)Cc1ccccn1 | -9 | -9
CCCNC(=O)N(C)C[C@H]1Oc2cc(Br)ccc2S(=O)(=O)N([C@H](C)CO)C[C@H]1C | 22 | 3
COCC(=O)NC[C@@H]1[C@H](c2ccc(C3=CCCC3)cc2)[C@H](CO)N1C(C)=O | 0 | 13
C[C@H]1CN([C@@H](C)CO)C(=O)c2cc(C#CCc3ccccc3)cnc2O[C@@H]1CN(C)Cc1cccc(F)c1 | ? | /
CO[C@H]1CN(C)C(=O)c2cc(NS(=O)(=O)c3cccc(C)c3)ccc2OC[C@H](C)NC[C@@H]1C | 3 | 5
C[C@H]1CN([C@@H](C)CO)C(=O)c2cccc(NC(=O)C3CC3)c2O[C@H]1CN(C)S(=O)(=O)c1ccccc1 | 9 | 10
COc1ccc(NC(=O)N(C)C[C@@H]2Oc3ccc(NC(=O)c4ccncc4)cc3CC(=O)N([C@H](C)CO)C[C@H]2C)cc1 | 30 | 12
Cc1noc(C)c1NC(=O)N(C)C[C@H]1OCCCC[C@H](C)Oc2ccc(NS(=O)(=O)c3ccc(Cl)cc3)cc2C(=O)N([C@@H](C)CO)C[C@@H]1C | 16 | 4
C[C@@H](O)C#Cc1ccc2c(c1)O[C@H](CN(C)C(=O)C1CC1)[C@@H](C)CN([C@@H](C)CO)S2(=O)=O | 16 | 4
O=C(NCC1CC1)[C@@H]1[C@@H](CO)[C@@H]2Cn3c(ccc(-c4ccccc4)c3=O)[C@H]1N2Cc1nccs1 | 14 | 5
CC(C)CC#Cc1cnc2c(c1)C(=O)N([C@@H](C)CO)C[C@@H](C)[C@H](CN(C)Cc1ccc(F)cc1)O2 | -27 | -17
CCC(=O)Nc1ccc2c(c1)OC[C@H](C)N(C(=O)c1cccnc1)C[C@@H](C)[C@@H](OC)CN(C)C2=O | 6 | 11
OC[C@H]1[C@H](c2ccc(C#CC3(O)CCCC3)cc2)[C@@H]2CN(Cc3cncnc3)CCCCN12 | 8 | 6
O=C(O)[C@H]1[C@H](CO)[C@H]2Cn3c(ccc(-c4ccccc4)c3=O)[C@@H]1N2C(=O)C1CCCCC1 | -2 | -7
C[C@@H]1CN([C@@H](C)CO)C(=O)Cc2cc(NS(=O)(=O)c3ccccc3)ccc2O[C@H]1CN(C)Cc1ccc(C(=O)Nc2ccccc2N)cc1 | 19 | 16
CN(C)c1ccc2c(c1)[C@@H]1C[C@H](CC(=O)NCc3ccc(Oc4ccccc4)cc3)O[C@H](CO)[C@@H]1O2 | -26 | -19
Cc1noc(C)c1S(=O)(=O)N(C)C[C@@H]1OCCCC[C@H](C)Oc2ccc(NS(C)(=O)=O)cc2C(=O)N([C@H](C)CO)C[C@@H]1C | 15 | 2
COc1cccc(S(=O)(=O)Nc2ccc3c(c2)[C@H]2C[C@@H](CC(=O)NCc4ccc(Cl)cc4)O[C@@H](CO)[C@H]2O3)c1 | -7 | 2
Cc1noc(C)c1S(=O)(=O)Nc1cccc2c1O[C@H](CN(C)C(=O)Nc1ccccc1)[C@H](C)CN([C@H](C)CO)C2=O | 1 | 3
C/C=C/c1cnc2c(c1)C(=O)N([C@H](C)CO)C[C@H](C)[C@@H](CN(C)S(=O)(=O)c1cn(C)cn1)O2 | 29 | 6
CC(C)NC(=O)Nc1ccc2c(c1)C(=O)N([C@H](C)CO)C[C@@H](C)[C@H](CN(C)S(=O)(=O)c1ccc(Cl)cc1)OCCCC[C@@H](C)O2 | -29 | -22
CC(C)NC(=O)Nc1cccc2c1O[C@H](CN(C)C(=O)Nc1ccc(C(F)(F)F)cc1)[C@@H](C)CN([C@H](C)CO)C2=O | 7 | 8
CN(C)C(=O)C[C@@H]1CC[C@@H](NC(=O)C2CCC2)[C@@H](CO)O1 | -6 | -6
The list continues:
SMILES | Vaccinia stage | Vaccinia stage Venus
C/C=C/c1ccccc1[C@@H]1[C@@H](C#N)N(S(=O)(=O)c2cccc(F)c2)[C@H]1CO | -9 | 0
O=C(C[C@H]1CC[C@@H](NC(=O)C2CCOCC2)[C@H](CO)O1)Nc1ccc(-c2ccccc2)cc1 | -7 | 7
O=C(C[C@@H]1C[C@@H]2c3cc(NC(=O)C4CCOCC4)ccc3O[C@@H]2[C@@H](CO)O1)NCCN1CCCCC1 | 15 | 18
O=C(C[C@H]1C=C[C@H](NC(=O)c2ccncc2)[C@H](CO)O1)NCC1CC1 | 2 | 4
Cc1ccc(S(=O)(=O)N(C)C[C@@H]2Oc3c(NC(=O)Nc4cccc5ccccc45)cccc3C(=O)N([C@@H](C)CO)C[C@H]2C)cc1 | 6 | -1
C[C@H](CO)N1C[C@H](C)[C@H](CN(C)C(=O)Nc2ccc(F)cc2)Oc2ccc(N(C)C)cc2C1=O | 12 | 7
COCC(=O)N1CC[C@@H]2[C@H]1c1cc(C#Cc3cccc(F)c3)ccc1N[C@@H]2CO | 10 | 7
Cc1ccc(-c2cnc3c(c2)C(=O)N([C@@H](C)CO)C[C@H](C)[C@@H](CN(C)CC2CCCC2)O3)cc1 | ? | /
C[C@@H]1CN([C@H](C)CO)C(=O)c2cc(C#CCN(C)C)cnc2O[C@H]1CN(C)C(=O)CN1CCOCC1 | 19 | 4
CN(C)CC(=O)N[C@H]1CC[C@H](CCNC(=O)Nc2ccc(C(F)(F)F)cc2)O[C@H]1CO | -5 | 0
COc1ccc(-c2cnc3c(c2)C(=O)N([C@@H](C)CO)C[C@@H](C)[C@H](CN(C)Cc2ccc(C(=O)O)cc2)O3)cc1 | 4 | 17
CO[C@@H]1CN(C)C(=O)c2ccc(NC(=O)NC(C)C)cc2OC[C@@H](C)N(CCC(F)(F)F)C[C@@H]1C | 1 | 9
C[C@@H]1CN([C@H](C)CO)S(=O)(=O)c2ccc(C#CC3(O)CCCC3)cc2O[C@H]1CN(C)C(=O)Cc1ccncc1 | 9 | 17
C[C@H](CO)N1C[C@H](C)[C@H](CN(C)C(=O)c2ccncc2)Oc2ncc(-c3ccc(C(=O)N(C)C)cc3)cc2C1=O | 7 | 2
COc1ccc(NC(=O)N2C[C@@H](O)COC[C@H]3O[C@@H](CC(=O)N4CCOCC4)CC[C@@H]32)cc1 | 3 | -6
COc1ccccc1NC(=O)N1CC(=O)N2[C@H](C1)[C@@H](c1ccc(-c3ccc(F)cc3)cc1)[C@@H]2CO | -28 | -25
COc1ccc(S(=O)(=O)Nc2ccc3c(c2)C(=O)N([C@H](C)CO)C[C@H](C)[C@H](CN(C)C(=O)Nc2ccc(F)cc2)O3)cc1 | 11 | 0
C[C@H](O)C#Cc1ccc2c(c1)O[C@@H](CN(C)C(=O)C1CCC1)[C@H](C)CN([C@H](C)CO)S2(=O)=O | -4 | -1
COc1ccc(NC(=O)Nc2ccc3c(c2)C(=O)N([C@H](C)CO)C[C@@H](C)[C@H](CN(C)Cc2ccncc2)OCCCC[C@H](C)O3)cc1 | 33 | 11
C[C@@H]1CN([C@@H](C)CO)C(=O)c2cc(-c3ccncc3)cnc2O[C@H]1CN(C)Cc1ccc(F)cc1 | 2 | -3
C[C@H](CO)N1C[C@H](C)[C@H](CN(C)C)Oc2c(NS(=O)(=O)c3ccc(F)cc3)cccc2C1=O | 14 | 3
CC(C)CC#Cc1ccc2c(c1)O[C@@H](CN(C)C(=O)c1cccnc1)[C@@H](C)CN([C@@H](C)CO)S2(=O)=O | -23 | -15
O=C(Nc1ccc(F)cc1)N1CC(=O)N2[C@H](CO)[C@@H](c3ccc(C4=CCCC4)cc3)[C@H]2C1 | -33 | -17
Cc1ccc(S(=O)(=O)N(C)C[C@H]2Oc3ccc(NC(=O)Nc4cccc5ccccc45)cc3CC(=O)N([C@@H](C)CO)C[C@H]2C)cc1 | -12 | -5
CN1c2ccc(-c3ccccc3F)cc2[C@@H]2[C@@H](CCN2C(=O)CN2CCOCC2)[C@@H]1CO | -17 | -23

Copied from the entries so far for reference:
SMILES | Vaccinia stage | Vaccinia stage Venus
COc1ccccc1NC(=O)N1CC(=O)N2[C@H](C1)[C@@H](c1ccc(-c3ccc(F)cc3)cc1)[C@@H]2CO | -28 | -25
COc1ccc(S(=O)(=O)Nc2ccc3c(c2)C(=O)N([C@H](C)CO)C[C@H](C)[C@H](CN(C)C(=O)Nc2ccc(F)cc2)O3)cc1 | 11 | 0
C[C@H](O)C#Cc1ccc2c(c1)O[C@@H](CN(C)C(=O)C1CCC1)[C@H](C)CN([C@H](C)CO)S2(=O)=O | -4 | -1
COc1ccc(NC(=O)Nc2ccc3c(c2)C(=O)N([C@H](C)CO)C[C@@H](C)[C@H](CN(C)Cc2ccncc2)OCCCC[C@H](C)O3)cc1 | 33 | 11
C[C@@H]1CN([C@@H](C)CO)C(=O)c2cc(-c3ccncc3)cnc2O[C@H]1CN(C)Cc1ccc(F)cc1 | 2 | -3
C[C@H](CO)N1C[C@H](C)[C@H](CN(C)C)Oc2c(NS(=O)(=O)c3ccc(F)cc3)cccc2C1=O | 14 | 3
CC(C)CC#Cc1ccc2c(c1)O[C@@H](CN(C)C(=O)c1cccnc1)[C@@H](C)CN([C@@H](C)CO)S2(=O)=O | -23 | -15
O=C(Nc1ccc(F)cc1)N1CC(=O)N2[C@H](CO)[C@@H](c3ccc(C4=CCCC4)cc3)[C@H]2C1 | -33 | -17
Cc1ccc(S(=O)(=O)N(C)C[C@H]2Oc3ccc(NC(=O)Nc4cccc5ccccc45)cc3CC(=O)N([C@@H](C)CO)C[C@H]2C)cc1 | -12 | -5
CN1c2ccc(-c3ccccc3F)cc2[C@@H]2[C@@H](CCN2C(=O)CN2CCOCC2)[C@@H]1CO | -17 | -23

Later entries
SMILES | Vaccinia stage | Vaccinia stage Venus
C[C@H](CO)N1C[C@H](C)[C@@H](CN(C)Cc2ccccc2)Oc2ccc(NC(=O)Nc3ccc(F)cc3)cc2C1=O | -16 | -8
CCCNC(=O)N(C)C[C@H]1Oc2ncc(-c3ccc(OC)cc3)cc2C(=O)N([C@H](C)CO)C[C@@H]1C | 16 | 7
CCCNC(=O)N(C)C[C@@H]1Oc2cc(C#Cc3cccc(F)c3)ccc2S(=O)(=O)N([C@H](C)CO)C[C@H]1C | ? | /
CN(C)CC(=O)N[C@H]1CC[C@@H](CCNC(=O)C2CCCC2)O[C@H]1CO | -9 | 4
C[C@@H](O)C#Cc1ccc([C@@H]2[C@@H](CO)N3CCCCN(C(=O)c4ccc(F)cc4)C[C@@H]23)cc1 | 22 | 8
COCC(=O)N(C)C[C@@H]1Oc2cc(C#C[C@@H](C)O)ccc2S(=O)(=O)N([C@H](C)CO)C[C@H]1C | 6 | 6
O=C(CC(F)(F)F)N1C[C@H]2[C@@H](c3ccccc31)[C@H](CO)N2CC1CCOCC1 | -16 | -4
CCN1[C@@H]2Cn3c(ccc(C4=CCCC4)c3=O)[C@H]1[C@@H](C(=O)NCc1ccccn1)[C@@H]2CO | 19 | 22
CC(C)NC(=O)Nc1ccc2c(c1)C(=O)N([C@H](C)CO)C[C@H](C)[C@H](CN(C)C(=O)Nc1ccc3c(c1)OCO3)OCCCC[C@@H](C)O2 | 29 | 12
C[C@H](NC(=O)C[C@@H]1C=C[C@H](NC(=O)C2CC2)[C@H](CO)O1)c1ccccc1 | -6 | -2
COc1ccccc1C#Cc1ccc([C@@H]2[C@H]3CN(C(=O)C4CCC4)CCCCN3[C@H]2CO)cc1 | -33 | -14
CN1C(=O)c2cc(NC(=O)c3ccc(F)cc3)ccc2OC[C@H]2O[C@@H](CC(=O)O)CC[C@H]21 | -6 | -10
O=C(Nc1ccccc1)N1CCCCN2[C@H](CO)[C@@H](c3ccc(Br)cc3)[C@H]2C1 | -7 | -13
C[C@H]1CN([C@@H](C)CO)C(=O)c2cc(Br)cnc2O[C@@H]1CN(C)Cc1cccc(C(=O)O)c1 | 18 | 4
C[C@@H]1CN([C@@H](C)CO)C(=O)c2cc(C#CCN(C)C)cnc2O[C@H]1CN(C)Cc1ccc2c(c1)OCO2 | 1&1 | 4&-3
CC(C)C#Cc1ccc([C@H]2[C@H]3CN(C(=O)C4CCCCC4)CC(=O)N3[C@H]2CO)cc1 | -13 | -22
COc1ccccc1-c1cnc2c(c1)C(=O)N([C@H](C)CO)C[C@@H](C)[C@@H](CN(C)Cc1cccnc1)O2 | -11 | -7
COc1ccc(S(=O)(=O)Nc2ccc3c(c2)C(=O)N([C@@H](C)CO)C[C@@H](C)[C@@H](CN(C)S(=O)(=O)c2ccc(C)cc2)OCCCC[C@H](C)O3)cc1 | -15 | -10
COc1ccc(S(=O)(=O)N(C)C[C@H]2Oc3ccc(NC(=O)c4ccncc4)cc3CC(=O)N([C@@H](C)CO)C[C@H]2C)cc1 | 9 | 4
CC(C)NC(=O)N(C)C[C@H]1Oc2ccc(NC(=O)c3ccncc3)cc2CC(=O)N([C@@H](C)CO)C[C@H]1C | 28 | 12
C[C@H](CO)N1C[C@H](C)[C@H](CN(C)Cc2cccnc2)OCc2ccccc2-c2c(n(C)c3ccccc23)C1=O | 12 | -2
O=C1CN(S(=O)(=O)c2ccccc2)C[C@@H]2[C@H](c3ccc(C#CCc4ccccc4)cc3)[C@H](CO)N12 | -1 | -4
O=C(Nc1ccc(Cl)cc1)N1C[C@H]2[C@@H](c3ccccc31)[C@H](CO)N2CC1CCCC1 | ? | /
COc1ccc(NC(=O)Nc2ccc3c(c2)[C@@H]2C[C@H](CC(=O)NCc4ccc(-c5ccccc5)cc4)O[C@@H](CO)[C@@H]2O3)cc1 | 1 | -2

Not all compounds are listed; count on the stated rates, not on these rows.
